Bioassay records: PubChem, National Center for Advancing Translational Sciences (NCATS)
GLA inh pH 4.5: qHTS Assay for Inhibitors of Human alpha-Galactosidase at pH 4.5; purified enzyme, 4-MU-alpha-Gal fluorescence, pH 4.5; AID 1467, 2008; activity change, negative = inhibition, % at 105 µM; Alpha-galactosidase A (Homo sapiens), P06280; 230,000 tested, under 10 active; inconclusive = small, poorly fitted or top-dose-only inhibition, or a rising curve; inactive = flat fitted curve, though single readings scatter; no compound was filed as active;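 further: 0% = full activity with enzyme and -100% = basal without enzyme; dose as in the result columns while the protocol names 77 µM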
Target sequence (P06280 whole entry, looked up): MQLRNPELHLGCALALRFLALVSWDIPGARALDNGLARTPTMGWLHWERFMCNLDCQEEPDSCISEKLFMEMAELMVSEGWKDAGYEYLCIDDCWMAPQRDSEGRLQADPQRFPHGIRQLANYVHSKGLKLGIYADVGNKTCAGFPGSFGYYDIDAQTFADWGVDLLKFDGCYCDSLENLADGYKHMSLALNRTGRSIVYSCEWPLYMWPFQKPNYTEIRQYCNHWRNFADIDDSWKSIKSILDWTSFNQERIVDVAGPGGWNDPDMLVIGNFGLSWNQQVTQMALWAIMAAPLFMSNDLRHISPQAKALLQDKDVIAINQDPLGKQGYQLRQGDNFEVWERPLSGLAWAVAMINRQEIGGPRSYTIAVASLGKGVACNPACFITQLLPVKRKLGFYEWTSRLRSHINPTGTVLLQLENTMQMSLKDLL
miR-21 reporter: qHTS Assay for Modulators of miRNAs and/orActivators of miR-21 | HeLa miR-21 FLuc reporter, luciferase, 48 h | Potency, µM (highest dose often 38.3 µM), for the others: at the highest dose reporter change, positive = more light | 340,000 tested, under 10 active | AID 2288, 2010; active = well fitted rising curve with a large enough effect; inconclusive = small, poorly fitted or top-dose-only effect; inactive = no such curve, though single readings can be large or run the other way;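 further: % of control where 0% means no effect; miR-21 action dims this reporter so a rising signal means less miR-21 action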
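HeLa cells stably expressing CMV-driven firefly luciferase with a downstream miR-21 binding sequence, endogenously expressing miR-21, were treated with titrations (up to about 40uM final) for 48 hours at 37 degree Celsius. Luciferase luminescence was read after lysis.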
Rango release inh: qHTS Assay for Inhibitors of RanGTP induced Rango (Ran-regulated importin-beta cargo) - Importin beta complex dissociation | Snurportin-1 (Homo sapiens) + GTP-binding nuclear protein Ran (Homo sapiens) + Importin … | Biochemical FRET Rango-importin beta, RanGTP-induced dissociation | Potency, µM (doses to about 46.1 µM), for inactives: at the highest dose activity change, negative = inhibition | hit rate 0.071% among 340,000; active means falling FRET ratio curve, often poorly fitted, with flat reads before Ran was added; inconclusive means other falling curves, or compound fluorescence or quenching; inactive means flat or rising ratio curve;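 further: potency means the concentration at half of the fitted maximal effect; % of control where 0% means no effect; nearly all actives have a fitted effect of over 45% in size; -100% = wells without RanGTP and RCC1; the record marks most hits as doubtful in a second field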
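Compounds sat 5 min at room temperature with 0.1 uM Rango biosensor plus 0.25 uM importin beta, then FRET pre-read. RanGTP-RCC1 (0.6 uM Ran, 2mM GTP, 0.2 uM RCC1) added for 45 min, and the CFP/YFP post-read measured blocked complex dissociation.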
Rango complex inh: qHTS Assay for Inhibitors of Rango (Ran-regulated importin-beta cargo) - Importin beta complex formation. Potency, µM (highest dose often 92.2 µM), without a hit: at the highest dose inhibition of complex formation. hit rate 0.031% among 340,000. Importin subunit beta-1 (Homo sapiens), Q14974. Rango CFP/YFP FRET sensor + importin beta, 45 min. AID 540263, 2011; active = rising FRET ratio curve, often small or poorly fitted; inconclusive = mostly compound fluorescence or quenching in the first reads; inactive = flat curves in all reads;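 further: potency means the concentration at half of the fitted maximal effect; 0% = DMSO wells and 100% = buffer wells lacking importin beta; nearly all actives have a fitted effect of over 15% in size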
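FRET biosensor Rango (snurportin 1 IBB between N-terminal EYFP and C-terminal Cerulean), 50 nM in PBS/1 mM DTT/0.02% Tween-20/0.1% BSA, preincubated 5 min RT with compound; 0.125 microM importin beta added, 45 min RT, CFP/YFP FRET ratio read.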
* marks the source's active call; other numbers are inactive results; ? = inconclusive; . = not tested or not shown; & = joins results of further samples; [ ] = remark or other dose. A portion of the library; count on the stated rates, not on these rows.

GLA inh pH 4.5,miR-21 reporter,Rango release inh,Rango complex inh,mol
-16,1%,1%,1.2%,CCC(CC)c1nnc(NC(=O)CN2C(=O)c3ccccc3C2=O)s1
-20,5%,-19%,?,O=C(N[C@@H](Cc1ccccc1)C(=O)OCc1ccccc1)c1nc[nH]c1C(=O)N1CCN(c2ccccc2)CC1
4,.,-16%,-3.1%,COCCN1C(=O)N[C@@H](CCc2ccccc2)[C@H](C(=O)OC)[C@H]1C
-7,1%,0%,-1.9%,CN(CCc1nc2ccccc2[nH]1)Cc1nc(CC2CC2)no1
.,-18%,16%,4.5%,Cc1cc(NC(=O)c2ccc(Cl)cc2)ccc1NC(=O)c1ccccc1Cl
0,-1%,?,1.3%,Cc1ccc(NC(=O)CSc2nc3ccccc3c(=O)n2CCCC(=O)NCCCN2CCOCC2)cc1
.,.,-16%,0.2%,CC(=NNC(=O)c1cccc(S(=O)(=O)N2CCCC2)c1)c1ccccc1
-7,-4%,-6%,-0.1%,CCOC(=O)NC1(C(F)(F)F)NC(=O)N(Cc2ccco2)C1=O (stereo not given)
.,-4%,0%,-1.2%,CN1CCN(c2ccc(NC(=S)NC(=O)c3cccc4c(Br)cccc34)cc2)CC1
.,-40%,8%,-0.8%,O=C(O)COc1ccc(/C=C/C(=O)c2ccc(C3CCCCC3)cc2)cc1
4,-10%,16%,-7.1%,O=C(Cc1ccccc1)Nc1cccc([N+](=O)[O-])c1
-26,1%,5%,2.3%,COc1ccc(/C=N/Nc2nc(Nc3ccccc3)nc(N3CCCCC3)n2)cc1OC
.,.,1%,-0.7%,CCC1(c2ccccc2)NC(=O)N(CC(=O)N(c2ccccc2)C2CCS(=O)(=O)C2)C1=O (stereo not given)
5,-9%,9%,1.0%,CCn1c(SCC(=O)C(C)(C)C)nnc1-c1cnccn1
-7,-20%,15%,5.0%,CCOc1ccc(NC(=O)CCSc2ccc3ccccc3n2)cc1

Arranged by heavy-atom count (lowest first): 3 of the compounds above.
GLA inh pH 4.5,miR-21 reporter,Rango release inh,Rango complex inh,mol
4,.,-16%,-3.1%,COCCN1C(=O)N[C@@H](CCc2ccccc2)[C@H](C(=O)OC)[C@H]1C
.,.,-16%,0.2%,CC(=NNC(=O)c1cccc(S(=O)(=O)N2CCCC2)c1)c1ccccc1
-26,1%,5%,2.3%,COc1ccc(/C=N/Nc2nc(Nc3ccccc3)nc(N3CCCCC3)n2)cc1OC

Additional records follow.
GLA inh pH 4.5,miR-21 reporter,Rango release inh,Rango complex inh,mol
11,-13%,.,.,C/C(=N\Nc1nc(-c2ccc(C)cc2)nc2ccccc12)c1ccc([N+](=O)[O-])cc1
.,2%,13%,0.8%,COCCN(Cc1nc(C(c2ccccc2)c2ccccc2)no1)C(C)C
.,4%,21%,2.9%,Cc1ccc(Nc2nc(C)cc(C)c2C(N)=O)c(C)c1
.,-59%&-53%,-3%,-2.8%,O=S(=O)(Nc1cccc(-c2ccc(N3CCCCCC3)nn2)c1)c1ccccc1F
-7,-38%,-2%,4.2%,COc1ccc(C2=NN(c3nc4ccccc4s3)C(=O)C2)cc1
.,.,?,?,Nc1ccc(C(=O)N/N=C/c2ccc(N3CCOCC3)s2)cc1
10,-9%,0%,?,O=C(NCCCN1CCOCC1)c1cc2c(s1)CSC2
.,.,4%,?,COc1cc2c(-c3ccc4[nH]ccc4c3)c(-c3ccc(C#N)cc3)oc(=O)c2cc1OC
3,-33%,-1%,-1.1%,COc1ccc2c(CSc3nc4nc(C)cc(C)n4n3)cc(=O)oc2c1
-4,10%,-1%,-0.2%,COc1ccc(C(=O)NCC23C=CC(O2)C2C(=O)N(Cc4ccccc4)C(=O)C23)cc1 (stereo not given)
.,.,1%,-1.5%,CCOc1ccc(N2CC(C(=O)NCCN3C(=O)S/C(=C/c4cccnc4)C3=O)CC2=O)cc1 (stereo not given)
-8,-3%,-6%,2.3%,CC1CCCC(NC(=O)C2CCN(S(=O)(=O)N3CCOCC3)CC2)C1C (stereo not given)
.,.,0%,-4.2%,COc1ccc(C(=O)Nc2cccc([N+](=O)[O-])c2)cc1Br
-2,0%,-9%,2.3%,COc1ccc(SCCC(=O)NCc2ccncc2)cc1
26,-5%,11%,-3.7%,Cc1ccc(OCc2nc(C#N)c(NCCCn3ccnc3)o2)cc1
.,-10%,0%,-4.9%,N#CCC(=O)Nc1ccc(C(=O)NCCc2c[nH]c3ccccc23)cc1
-4,1%,-8%,-1.6%,CC(=O)COc1cc(C)cc2oc(=O)c(C)c(C)c12
-3,-2%,12%,?,CCN(CC)S(=O)(=O)c1cccc(NC(=O)COC(=O)c2cccs2)c1
-5,0%,-5%,-2.4%,CCCc1nc2c(c(=O)c3ccccc3n2C)c(=O)n1C1CCCCCC1
-3,3%,5%,-0.7%,Cc1nc(NC2=NCN(CCCN3CCOCC3)CN2)nc2c(C)cccc12
?,-17%,-3%,?,c1ccc2c(c1)NC1(CCCC1)n1c-2nc2ccccc21
4,-14%,-1%,-3.0%,COc1ccc(CNC(=O)CN(c2ccc(OC)cc2)S(=O)(=O)c2c(C)nn(C)c2C)cc1
8,2%,-19%,-5.4%,O=S(=O)([N-]c1nc2ccccc2nc1-[n+]1ccccc1)c1ccc(Cl)cc1
8,-3%,-9%,-1.0%,COCc1cc(C)n(CC(=O)NCc2ccccc2)c(=O)c1C#N
2,?,-12%,0.8%,Cc1ccc2nc(N(CCCN(C)C)C(=O)c3ccc(Br)s3)sc2c1
-10,22%,8%,1.1%,CC(C)Oc1ccc(CNC(=O)CC(c2ccccc2)c2cc(Cl)ccc2O)cc1 (stereo not given)
.,23%,-16%,-0.1%,Cc1cc(OCc2cc(C(=O)N3CCN(C)C(=O)[C@@H]3C)no2)cc(C)c1Cl
-2,2%,-26%,-1.5%,N/C(=N\OC(=O)CCCOc1ccccc1)c1ccc([N+](=O)[O-])cc1
.,-5%,-22%,0.2%,COc1cccc(-c2ocnc2C(=O)Nc2ccc(N3CCOCC3)cc2N2CCOCC2)c1
.,.,-11%,-5.3%,Cc1cc(C)c(OCC(=O)Nc2ccc(S(=O)(=O)N3CCCC3)cc2)c(C)c1
1,-6%,14%,-2.8%,COc1ccccc1N(CC(=O)NC(C)(C)C)C(=O)C1CSC(=O)C1 (stereo not given)
-5,-15%,-6%,0.3%,c1ccc(-n2nnc3cnccc32)cc1
.,2%,0%,0.0%,COCCn1c(=S)[nH]c2sc3c(c2c1=O)CCCC3
.,1%,13%,0.6%,CC(NC(=O)OCc1ccccc1)C(=O)N1CC(O)CC1C(=O)O (stereo not given)
8,-1%,2%,-2.4%,COc1ccc(NS(=O)(=O)c2cccc3nonc23)c(OC)c1
7,-1%,0%,-7.9%,CCOc1ccc(C(C)=O)cc1COC(=O)c1cnc(Cl)c(Cl)c1
-3,13%,-6%,-1.4%,COc1cccc(C(=O)NCC2(c3ccccc3)CCCC2)c1
-9,3%,2%,-5.3%,O=C(O)COc1ccc(Br)cc1/C=C1/SC(=O)N(CC(=O)N2CCCC2)C1=O
.,.,3%,4.3%,CN(C)C(=O)c1ccc(NC(=O)COC(=O)C2=COCCO2)cc1
6,-2%,28%,?,COc1ccc(NC(=O)COC(=O)Cn2nnc3ccccc32)cc1
.,-14%,1%,0.0%,COc1ccccc1C(=O)NC(=S)Nc1ccccc1N1CCCCC1
.,4%,-6%,4.8%,COc1cc(OC)cc(C(=O)NCC(=O)N2CCN(c3ccc(O)cc3)CC2)c1
1,3%,-2%,2.9%,CCCn1c(=O)c(C(=O)OCC)c(O)c2cc(Br)ccc21
.,-4%,0%,-4.1%,COc1cc2c(cc1OC)CN(CC(=O)Nc1ccc(F)cc1F)CC2
.,.,-14%,-2.3%,CC1CCCC(NC(=O)COC(=O)c2cc(S(=O)(=O)N3CCOCC3)ccc2F)C1C (stereo not given)
1,-2%,2%,0.7%,O=C(CCN1C(=O)c2ccccc2C1=O)Nc1ccc2c(c1)OCCO2
.,.,-9%,2.8%,COc1ccc(-c2c(-c3ccccc3OC)sc3ccccc23)cc1C=O
-7,0%,-12%,-1.9%,Cc1ccc2c(c1)N(S(=O)(=O)c1ccc(F)cc1)C(C(C)(C)C)CO2 (stereo not given)
.,0%,16%,3.7%,COc1ccccc1NC(=O)CSc1nnnn1C1CCCC1
6,4%,0%,3.6%,CC1CC(C)CN(S(=O)(=O)c2ccc3c(c2)oc(=O)n3CC(=O)N2CCOCC2)C1 (stereo not given)
-15,0%,2%,-1.0%,COc1cccc(NC(=O)C(Sc2nnc(-c3ccncc3)n2-c2ccc(Cl)cc2)c2ccccc2)c1 (stereo not given)
.,.,5%,-0.6%,CC1(CNC(=O)C(=O)NCC2(C)CO2)CO1 (stereo not given)
-2[21.1 µM],1%,-5%,-1.2%,Cc1onc(C(=O)NCc2cccs2)c1[N+](=O)[O-]
.,3%,18%,1.9%,CCC(C)c1ccccc1NC(=O)CN(C)CC(=O)Nc1ccccc1SC (stereo not given)
2,-3%,-28%,?,CCc1cc[n+](-c2nc([O-])sc2C=O)cc1
3,-50%,14%,-0.1%,O=C(NC(=S)Nc1ccc(N2CCOCC2)cc1)c1ccco1
.,15%,0%,8.1%,Cc1c(CC(=O)NCCCCCC(=O)O)c(=O)oc2cc3c(cc12)CCC(C)(C)O3
.,2%,-8%,0.4%,CC(C)NC(=O)C(c1ccc(F)cc1)N(C(=O)CCC(=O)Nc1ccccn1)C1CCCCC1 (stereo not given)
-7,1%,23%,0.1%,CCCn1c2ccccc2c2cc(C(=O)O)ccc21
2,3%,21%,1.8%,CCCCNC(=O)C1CCN(c2nc(C)cc(C)n2)CC1

Further results
GLA inh pH 4.5,miR-21 reporter,Rango release inh,Rango complex inh,mol
-7,2%,-4%,-3.0%,Cc1ccccc1NC(=O)/C=C1\SC(=O)NC1=O
.,-7%,?,?,O=C(Nc1ccccc1Cl)OC1CCCCC1
-2,-11%,0%,-2.1%,O=C(Nc1cccc(Br)c1)c1ccc(CSc2ccccc2)cc1
.,2%,16%,-1.0%,O=C(Oc1ccc(C(=S)N2CCOCC2)cc1)c1ccc([N+](=O)[O-])cc1[N+](=O)[O-]
.,-4%,-4%,-2.7%,COc1ccc(C(=O)NCC(=O)N/N=C/c2cn(C)c3ccccc23)cc1OC
-4[21.1 µM],0%,8%,4.5%,O=C(NCC1CCCO1)c1ccc2c(=O)n(Cc3ccc(Cl)cc3)c(=S)[nH]c2c1 (stereo not given)
.,.,18%,-0.3%,COc1ccc(OC)c(NC(=O)C(C)OC(=O)c2cc3ccccc3[nH]2)c1 (stereo not given)
.,-5%,1%,0.7%,COc1ccc2nc(SCC(=O)NCc3ccccc3)[nH]c2c1

Gathered by group: those above with an aryl thioether with sulfur outside any ring (ten)
GLA inh pH 4.5,miR-21 reporter,Rango release inh,Rango complex inh,mol
0,-1%,?,1.3%,Cc1ccc(NC(=O)CSc2nc3ccccc3c(=O)n2CCCC(=O)NCCCN2CCOCC2)cc1
5,-9%,9%,1.0%,CCn1c(SCC(=O)C(C)(C)C)nnc1-c1cnccn1
-7,-20%,15%,5.0%,CCOc1ccc(NC(=O)CCSc2ccc3ccccc3n2)cc1
3,-33%,-1%,-1.1%,COc1ccc2c(CSc3nc4nc(C)cc(C)n4n3)cc(=O)oc2c1
-2,0%,-9%,2.3%,COc1ccc(SCCC(=O)NCc2ccncc2)cc1
.,0%,16%,3.7%,COc1ccccc1NC(=O)CSc1nnnn1C1CCCC1
-15,0%,2%,-1.0%,COc1cccc(NC(=O)C(Sc2nnc(-c3ccncc3)n2-c2ccc(Cl)cc2)c2ccccc2)c1 (stereo not given)
.,3%,18%,1.9%,CCC(C)c1ccccc1NC(=O)CN(C)CC(=O)Nc1ccccc1SC (stereo not given)
-2,-11%,0%,-2.1%,O=C(Nc1cccc(Br)c1)c1ccc(CSc2ccccc2)cc1
.,-5%,1%,0.7%,COc1ccc2nc(SCC(=O)NCc3ccccc3)[nH]c2c1
